High-throughput results: PubChem, several laboratories
RGS16-Gao = regulators of human RGS16-Galphao interaction; O15492+P09471; bead-based flow cytometry RGS16-Galphao binding, fluorescence; actives lie on both sides; binding response (% of control), % at 10 µM; 0.38% of 220,000 active; AID 1441;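 active means below 25% or above 175%, edge rows of some plates excepted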;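 further: Galphao activated by GDP with aluminum fluoride before binding; 100% = wells without compound and 0% = beads without RGS; some results beyond the cut were filed as inactive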
HSV replic up = HSV replication enhancement | HSV replication augmentation in cells, fold increase | maximum fold increase | 0.005% of 220,000 active;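 active means peak rise of 1.5-fold or more in the series; tested in PC3 cells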;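 further: first round at 10 µM; read as green reporter fluorescence; hits show the peak of a series up to 25 µM; 1 = signal of infected wells without compound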
INS promoter inh = TRM-6 insulin promoter activity inhibition. TRM-6 cells (human fetal islet line), insulin promoter-eGFP reporter, imaging; reporter expression induced with tamoxifen. inhibition, % at 2 µM. 0.9% of 130,000 active;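 active means inhibition above the mean plus 3 SD, with well images judged a real hit on visual review, cut at about 60% in these data, passing the limit was not always enough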
GALR2 ag = agonists of human galanin receptor 2 (GALR2); GALR2-expressing cells, agonist activation read-out; 0.48% of 140,000 active; activation, %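 (tested at 5 µM)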;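 active means above mean plus 3 SD of all compounds, about 5% in these data, not always enough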;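 further: 0% = vehicle buffer wells and 100% = reference agonist at full effect; tested in CHO reporter cells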
PKD1 inh = PKD1 (human) kinase inhibition. PKD1 kinase fluorescence polarization assay. inhibition, %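 (about 10 µM by stock and volumes)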. 0.056% of 200,000 active. AID 797;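 active means inhibition of 50% or more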;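 further: controls were vehicle for no effect and a reference inhibitor for full effect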
Target sequence (Q15139 whole entry, looked up): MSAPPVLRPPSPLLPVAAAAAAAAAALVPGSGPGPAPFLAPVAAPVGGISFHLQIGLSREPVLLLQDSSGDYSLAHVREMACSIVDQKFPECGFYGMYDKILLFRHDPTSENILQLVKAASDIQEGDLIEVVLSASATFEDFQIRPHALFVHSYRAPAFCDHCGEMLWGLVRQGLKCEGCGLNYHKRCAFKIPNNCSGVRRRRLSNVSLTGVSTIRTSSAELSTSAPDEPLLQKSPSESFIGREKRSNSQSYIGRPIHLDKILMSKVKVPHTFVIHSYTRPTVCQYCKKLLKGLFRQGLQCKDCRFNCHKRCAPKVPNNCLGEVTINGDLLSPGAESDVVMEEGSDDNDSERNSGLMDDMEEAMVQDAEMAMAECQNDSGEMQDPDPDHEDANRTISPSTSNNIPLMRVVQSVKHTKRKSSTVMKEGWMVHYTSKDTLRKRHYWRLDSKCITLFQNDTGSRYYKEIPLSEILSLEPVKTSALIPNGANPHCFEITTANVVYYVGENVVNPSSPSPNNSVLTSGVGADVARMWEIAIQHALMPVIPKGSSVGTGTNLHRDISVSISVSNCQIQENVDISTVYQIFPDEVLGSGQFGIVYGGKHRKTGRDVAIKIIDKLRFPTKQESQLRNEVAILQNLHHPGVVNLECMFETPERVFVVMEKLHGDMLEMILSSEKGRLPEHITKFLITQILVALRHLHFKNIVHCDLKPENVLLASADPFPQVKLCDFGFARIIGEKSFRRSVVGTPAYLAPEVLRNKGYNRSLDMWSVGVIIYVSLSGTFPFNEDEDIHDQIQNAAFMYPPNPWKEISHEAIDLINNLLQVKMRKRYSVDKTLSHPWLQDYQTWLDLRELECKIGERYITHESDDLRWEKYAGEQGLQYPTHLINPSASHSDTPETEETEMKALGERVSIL
INS promoter inh cell count = further read-out of INS promoter inh, marked with its call; normalized cell count, %; measured here: cell count, toxicity; reference of the scale not given here;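 cells exposed to compound for 48 h; stained nuclei by imaging scaled within each plate; lower means fewer cells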
HSV replic up primary fold = further read-out of HSV replic up, marked with its call; fold increase; compound at 10 µM; measured here: primary screen fold increase 10 uM; tested in PC3 cells;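 GFP signal in the first replicate; 1 = infected wells without compound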
Active calls of the source: *; i = inactive; · = not tested or not shown; [ ] = remark or other dose.

SMILES	RGS16-Gao	HSV replic up	HSV replic up primary fold	INS promoter inh	INS promoter inh cell count	GALR2 ag	PKD1 inh
CCOC(=O)N1CCC(N2CC34C=CC(O3)C(C(=O)O)C4C2=O)CC1 (centres undefined)	99	i	0.91	·	·	-0.4	-18
CCOC(=O)C(NC(=O)NCc1ccccc1OC)(OCC)C(F)(F)F (centres undefined)	105	i	0.99	·	·	-0.3	3
CC(=O)Nc1cccc(C(=O)OCC(=O)c2ccccc2Cl)c1	103	i	1.1	14	129	·	-4
O=c1[nH]c2cc3c(cc2cc1CN(CC1CCCO1)S(=O)(=O)c1ccc(Cl)cc1)OCCO3 (centres undefined)	403	i	1.1	·	·	-1.6	2
CC(C)(C)c1ccc(-c2noc(CCC(=O)N3CCOCC3)n2)cc1	101	i	1.1	-7	91	·	4
Cn1c(=O)c2c(ncn2CC(COCc2ccc(Cl)cc2)OCc2ccc(Cl)cc2)n(C)c1=O (centres undefined)	96	i	0.92	50	39	-0.1	3
Cc1ccccc1Nc1c(-c2cccnc2)nc2cccc(C)n12	99	i	0.98	·	·	·	7
NS(=O)(=O)c1ccc(NC(=O)COC(=O)COc2ccc3ccccc3c2)cc1	98	i	1.1	·	·	·	-5
Cc1cccc(NC(=O)c2nc[nH]c2C(=O)N[C@@H](Cc2ccccc2)C(=O)OCc2ccccc2)c1	93	i	0.9	·	·	·	·
CCn1nnnc1SCC(=O)Nc1sc(C)c(C)c1C#N	100	i	0.79	3	244	-0.6	-9
CC(=O)c1ccc(NC(=O)CC(NCCC2=CCCCC2)C(=O)O)cc1 (centres undefined)	99	i	1.1	-8	102	-0.7	3
COC(=O)c1ccc(NCC(=O)Nc2cc(C)cc(C)c2)cc1	98	i	0.77	·	·	·	·
N#C/C(=C\Nc1ccc2cn[nH]c2c1)c1nc(-c2ccc(Cl)cc2)cs1	97	·	·	7	96	·	7
C=CCSc1ncccc1C(=O)O	111	i	1	12	145	-0.3	-4
NS(=O)(=O)c1ccc2nc(NC(=O)c3ccc(Br)o3)sc2c1	99	i	0.96	·	·	·	-1
CCOC(=O)c1cnn(CCOC(=O)c2cccs2)c1NC(=O)c1cccs1	104	i	1	·	·	-1.8	-1
COc1ccc(C)cc1S(=O)(=O)n1nc(C)cc1C	104	i	1.1	·	·	·	-4
O=C(COC(=O)c1oc2ccccc2c1CSc1ccc(Cl)cc1)NC1CCCC1	119	i	1.2	-47	102	0.9	5
COc1ccc2nc(C)cc(SCC(=O)N/N=C/c3c(OC)ccc4ccccc34)c2c1	91	i	0.78	30	137	-0.9	-3
CCOC(=O)CN1C(=O)C(O)(c2c(C)[nH]c3ccccc23)c2ccccc21 (centres undefined)	100	·	·	-12	92	-5.2	-8
O=C(CNC(=S)N(CCCN1CCOCC1)Cc1cccs1)NCCCN1CCOCC1	101	i	1	-22	136	-0.4	9
COc1ccccc1/C=N/NC(=O)c1ccc(-c2ccccc2)cc1	191*[activator]	i	0.9	23	76	0.1	-8
CC(=O)[C@H]1[C@H](CCc2ccccc2)NC(=O)N(Cc2ccccc2)[C@@H]1C	103	i	1.1	·	·	·	·
CC1(C)CC(=O)c2cc(C(=O)O)c(=O)n(-c3ccccc3)c2C1	99	i	0.97	-17	116	-0.2	9
Cc1ccc(C(=O)N/N=C\C=C\c2ccccc2[N+](=O)[O-])cn1	66	i	0.81	·	·	·	-2
CC1c2ccsc2CCN1C(=O)NC(=O)c1ccc(Cl)cc1 (centres undefined)	104	i	0.86	·	·	·	·
CC(NC(=O)C(=O)NN=C1CCC(C(C)(C)C)CC1)c1ccccc1 (centres undefined)	105	i	0.95	40	190	0.3	-1
Cc1cc(C)c2nc(N3CCCC(C(=O)NCCCN4CCOCC4)C3)sc2c1 (centres undefined)	101	i	1	16	28	-0.5	-6
CCC(=O)NC(c1cccs1)c1cc(Cl)c2cccnc2c1O (centres undefined)	98	i	0.72	·	·	·	-11
CC1CN(Cc2csc(-c3ccc(Cl)cc3)n2)CC(C)O1 (centres undefined)	109	i	0.93	-109	144	·	-2
Cc1ccc(C)c(Nc2nc(N)c3ccccc3n2)c1	94	i	0.83	·	·	·	-7
Cc1ccccc1N/C(SCc1ccc(Cl)cc1)=C(/C#N)C(=O)NCc1ccco1	104	i	1	11	105	-0.7	-3
CCC(C)NC(=O)CCC(=O)Nc1ccc2nc(N3CC(C)CC(C)C3)cc(C)c2c1 (centres undefined)	103	i	0.73	-75	111	·	0
O=C(CCCC(=O)N(CC(=O)NC1CCCC1)Cc1ccccc1Cl)Nc1ccccn1	107	i	0.92	-7	68	-0.6	-4
CC(C)C1Cc2c(sc3c2c(=O)n(-c2ccccc2)c2n[nH]c(=S)n32)CO1 (centres undefined)	100	i	0.9	·	·	·	·
COc1cc2c(cc1OC)CN(CC(=O)Nc1ccc(S(=O)(=O)N(C)C)cc1)CC2	106	i	0.92	·	·	·	-4
O=C1NC(=O)/C(=C/C(=O)N2CCOCC2)S1	112	i	0.93	·	·	·	1
COc1ccc(/C(N)=C/C(=O)C(C)(C)C)cc1	104	i	1.1	·	·	-2.9	-4
Cc1ccc(NC(=O)C(C)OC(=O)CCNS(=O)(=O)c2ccc(C)cc2)cc1 (centres undefined)	109	i	0.94	-13	116	-0.8	-4
COC(=O)C1=C(C)N(c2ccccc2)/C(=C/c2ccco2)C1=O	105	i	1	·	·	·	·
Cc1ccc(C(=O)CC(=O)c2cc(Cl)ccc2O)cc1	100	i	0.6	-53	223	-0.3	-8
CC1C(=O)NN=C1C(=O)N/N=C\C(Br)=C\c1ccccc1 (centres undefined)	99	i	0.87	8	166	·	-10
NS(=O)(=O)c1ccc(CCNC(=O)C(=O)C2C(=O)Nc3ccccc32)cc1 (centres undefined)	115	i	1.1	·	·	·	·
Cn1c(=O)c2c(ncn2CCC(=O)N/N=C/c2ccccc2)n(C)c1=O	103	i	1.1	·	·	·	·
O=C(CS(=O)(=O)c1cn(Cc2ccccc2Cl)c2ccccc12)N1CCOCC1	101	i	0.98	-40	139	-1.8	-8
CCOC(=O)C1CCN(CC(O)COc2ccc(C(C)=O)cc2)CC1 (centres undefined)	101	i	0.85	·	·	-2.7	-10
CC(C)(CN=C1NS(=O)(=O)c2ccccc21)CNC(=O)CN1C(=O)c2ccccc2C1=O	105	i	1	·	·	-1.1	-7
Cc1ccccc1-n1c(=O)cc(N2CCN(C(=O)c3ccco3)CC2)[nH]c1=O	95	i	0.87	·	·	0.7	-3

7 neighbouring entries already listed:
SMILES	RGS16-Gao	HSV replic up	HSV replic up primary fold	INS promoter inh	INS promoter inh cell count	GALR2 ag	PKD1 inh
CC(NC(=O)C(=O)NN=C1CCC(C(C)(C)C)CC1)c1ccccc1 (centres undefined)	105	i	0.95	40	190	0.3	-1
Cc1cc(C)c2nc(N3CCCC(C(=O)NCCCN4CCOCC4)C3)sc2c1 (centres undefined)	101	i	1	16	28	-0.5	-6
CCC(=O)NC(c1cccs1)c1cc(Cl)c2cccnc2c1O (centres undefined)	98	i	0.72	·	·	·	-11
CC1CN(Cc2csc(-c3ccc(Cl)cc3)n2)CC(C)O1 (centres undefined)	109	i	0.93	-109	144	·	-2
Cc1ccc(C)c(Nc2nc(N)c3ccccc3n2)c1	94	i	0.83	·	·	·	-7
Cc1ccccc1N/C(SCc1ccc(Cl)cc1)=C(/C#N)C(=O)NCc1ccco1	104	i	1	11	105	-0.7	-3
CCC(C)NC(=O)CCC(=O)Nc1ccc2nc(N3CC(C)CC(C)C3)cc(C)c2c1 (centres undefined)	103	i	0.73	-75	111	·	0

Continuation:
SMILES	RGS16-Gao	HSV replic up	HSV replic up primary fold	INS promoter inh	INS promoter inh cell count	GALR2 ag	PKD1 inh
COc1ccc(CCN2C(=O)CSC2=Nc2ccc(C)cc2C)cc1OC	102	i	1	·	·	·	·
C=CCSc1n[nH]c(-c2ccccc2)n1	68	i	0.92	53	135	0.4	-5
O=[N+]([O-])c1ccc(/C=C/c2ccncc2)cc1	101	i	0.89	·	·	·	·
Cc1cccc(-c2noc(CN(C(=O)/C=C/c3ccccc3Cl)C(C)C)n2)c1	49	i	1	-33	60	-2.2	-2
Cc1ccc(-n2nc(CN3CCOCC3)c(-c3ccccc3)c2N)cc1Cl	101	i	0.99	·	·	-0.2	3
CC(CCc1ccccc1)NC(=O)CN(C)Cc1ccccc1F (centres undefined)	113	i	0.92	-145	31	·	-6
CC(=O)c1sc2nc(C)c3c(c2c1N)CCCC3	85	i	0.96	·	·	·	·
Cc1c(NC(=S)N2CCN(c3ccc(F)cc3)CC2)c(=O)n(-c2ccccc2)n1C	106	i	0.94	·	·	·	3
COc1ccc(-c2nn(-c3ccccc3)cc2/C=N/Nc2cccc(C(=O)O)c2)cc1	103	i	1	·	·	·	-4
Cc1cccc(-c2nc3sc(C)cc3c(=O)o2)c1	104	i	0.97	·	·	·	-4
Cc1ccc(NC(=O)c2cc(F)c(F)cc2Cl)nc1	99	i	0.97	·	·	·	9
Cc1nn(CC(=O)OCC(=O)Nc2c(C(C)C)cccc2C(C)C)c(C)c1[N+](=O)[O-]	94	i	0.9	-4	71	-0.3	-1

Among those listed so far, 2 have bromine.
SMILES	RGS16-Gao	HSV replic up	HSV replic up primary fold	INS promoter inh	INS promoter inh cell count	GALR2 ag	PKD1 inh
NS(=O)(=O)c1ccc2nc(NC(=O)c3ccc(Br)o3)sc2c1	99	i	0.96	·	·	·	-1
CC1C(=O)NN=C1C(=O)N/N=C\C(Br)=C\c1ccccc1 (centres undefined)	99	i	0.87	8	166	·	-10

The list goes on.
SMILES	RGS16-Gao	HSV replic up	HSV replic up primary fold	INS promoter inh	INS promoter inh cell count	GALR2 ag	PKD1 inh
COc1cccc(C(=O)COc2ccc3c(C)c(Cc4ccccc4)c(=O)oc3c2C)c1	98	i	0.97	39	81	-1.8	-12
CC(=O)c1cccc(N(CC(=O)Nc2cccnc2)S(C)(=O)=O)c1	102	i	1.1	-429	36	-1.6	-12
Nc1cccc(S(=O)(=O)Nc2ccc(SC(F)F)cc2)c1	104	i	1.1	·	·	·	·
CC(C)COc1ccc(C(=O)Nc2ccc(NC(=O)c3ccco3)c(Cl)c2)cc1	95	i	0.66	23	179	0.0	-1
Cc1cc(=O)[nH]c(SCc2nc3ccc([N+](=O)[O-])cc3[nH]2)n1	82	i	0.95	-7	142	-1.4	-16
C=CCSc1nc2sc3c(c2c(=O)n1CC)CCc1ccccc1-3	43	i	0.96	18	91	-2.7	-6
COc1ccc(C(C)=O)cc1CSc1nncn1-c1ccccc1	103	i	0.92	·	·	0.0	1
Cc1ccc(C(=O)N(CN2CCCC2=O)c2ccccc2)cc1C	102	i	0.98	·	·	-1.3	3
CC1CN(C(=S)NC(=O)C2CCCCC2)CC(C)O1 (centres undefined)	118	i	0.9	-3	95	-0.7	-13
CCOC(=O)c1cc2c(n(-c3ccccc3)c1=O)CC(C)(C)CC2=O	91	i	1.1	-420	61	-3.0	-8
COc1cc(/C=N\Nc2nc3ccccc3o2)cc(OC)c1OC	93	i	0.82	-469	74	-1.4	-6
Cc1ccc(Cn2ccc(O)c(Cc3ccccc3)c2=O)cc1	101	i	0.98	·	·	·	3
N#CC1=C(Nc2ccccc2)SC=C(c2ccc(Br)cc2)N=C1N1CCOCC1	99	i	0.83	20	116	-1.6	-1
COc1ccc(-c2[nH]c(-c3ccc(C)cc3)nc2SCC(=O)NC2CCCC2)cc1	119	i	0.76	-12	98	-1.1	8
O=C(Oc1ccccc1-c1nnco1)c1ccccc1	100	i	0.89	0	68	-1.9	3
Cc1cc(C)cc(OCC(=O)NC2CCCc3ccccc32)c1 (centres undefined)	53	i	1.1	·	·	-1.5	-6
O=C(COC(=O)c1cc(-c2ccccc2)nc2ccccc12)Nc1ccc2c(c1)OCO2	108	i	1.2	·	·	-0.5	1
CCCCCCCC(=O)Nc1ccc(S(=O)(=O)Nc2nccs2)cc1	102	i	1	-93	72	-1.6	0
O=C(Nc1ccccc1)c1ccc(-c2ccc(F)cc2)s1	103	i	0.89	·	·	·	-1
c1ccc(Cc2nnc(-c3ccccc3)o2)cc1	98	i	0.64	33	103	-1.0	-8
CC(C)Oc1ccc(Cc2c(O)nc(NCCCN(C)C)[nH]c2=O)cc1	109	i	0.92	-8	178	-1.1	-2
CN(Cc1ccccc1)C(=O)N1CCOCC1	106	i	0.9	·	·	·	·
Cc1cccc(C(=O)N2CCN(c3ccc(C(F)(F)F)cn3)CC2)c1C	101	i	0.89	-73	41	-2.0	-7
COc1cc(/C=N/NC(=O)c2cccc([N+](=O)[O-])c2)ccc1OC(=O)c1ccco1	103	i	0.99	-9	107	·	-8
CCOC(=O)c1ccc(NC(=O)CCc2nc(-c3ccccc3Cl)no2)cc1	102	i	1	·	·	-0.6	5
Cn1c(SCC(=O)NCc2cccs2)nnc1-c1ccc(O)cc1	107	i	1.1	-21	141	·	5
O=C(NC1CCN(Cc2ccccc2)CC1)c1ccc2c(c1)[nH]c(=O)n2Cc1ccc(F)cc1	99	i	0.76	-219	102	·	-2
O=C(NNC(=O)C1CCN(c2ncccn2)CC1)c1ccncc1	104	i	0.98	·	·	·	1
CCOC(=O)Nc1csnn1	97	i	0.84	·	·	·	·
